Screening results deposited in PubChem by several laboratories.
VCAM-1 down – inhibitors of TNFa-induced VCAM-1 surface display, cell-based, plate reader, pooled HUVEC, TNFa stimulus (AID 454) | 10,000 tested, 0.2% active | inhibition, % at 5 µM | HUVEC TNFa-induced VCAM-1 surface immunofluorescence, plate reader; numbers were filed only for top-ranked candidate wells;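 active = compound among top-ranked inhibitors of TNF-induced VCAM-1 adhesion protein staining, with the hit upheld by image or statistical review; inactive = the rest, including hits rejected on review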;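 note: 0% = TNFa with vehicle and 100% = cells without TNFa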
VCAM-1 up imaging – enhancers of VCAM-1 display on endothelial cells, imaging, high-content imaging, pooled HUVEC, TNFa stimulus (AID 457); Pooled HUVEC, TNFa-induced VCAM-1 immunofluorescence imaging; hits of this screen are not shown here; calls only; 10,000 tested, 0.2% active;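 active = a top-ranked rise in VCAM-1 staining upheld on image or statistical review; inactive = the rest, including candidates rejected on review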;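 note: compounds tested at 5 µM in the well; cells exposed to compound for 24 hours before fixing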
VCAM-1 down imaging – inhibitors of TNFa-induced VCAM-1 surface display, imaging, high-content imaging, pooled HUVEC, TNFa stimulus (AID 456). HUVEC TNFa-induced VCAM-1 surface expression, immunofluorescence imaging; numbers were filed only for top-ranked candidate wells. inhibition, % at 5 µM, or IC50 in µM where a hit was titrated. 10,000 tested, 0.2% active;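 active = top tenth filtered wells with inhibition above zero that passed visual or statistical confirmation; inactive = the rest, including hits rejected on review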;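 note: 0% = stimulated vehicle wells and 100% = unstimulated cells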
FPR binder – human FPR ligands by binding competition, primary screen, cell-based, FPRL1 counter-screen, flow cytometry; fMet-Leu-Phe receptor (Homo sapiens), P21462; FPR-expressing cells, fluorescent ligand binding; inhibition, %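 (tested at 6.7 µM)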; 24,000 tested, 0.74% active;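 note: 0% = buffer wells and 100% = receptor blocker peptide wells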
Target sequence (P21462 whole entry, looked up): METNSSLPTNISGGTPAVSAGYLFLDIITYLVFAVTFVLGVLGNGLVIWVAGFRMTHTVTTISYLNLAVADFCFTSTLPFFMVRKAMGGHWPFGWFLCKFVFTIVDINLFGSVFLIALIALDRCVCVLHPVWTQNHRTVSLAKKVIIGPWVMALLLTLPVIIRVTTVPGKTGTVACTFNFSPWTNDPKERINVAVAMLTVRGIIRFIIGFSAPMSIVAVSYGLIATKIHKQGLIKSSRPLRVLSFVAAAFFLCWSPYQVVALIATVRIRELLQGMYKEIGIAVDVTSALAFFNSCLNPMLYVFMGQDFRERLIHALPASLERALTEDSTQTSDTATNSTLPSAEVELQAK
FPRL1 binder – human FPRL1 ligands by binding competition, primary screen, cell-based, FPR counter-screen, flow cytometry | N-formyl peptide receptor 2 (Homo sapiens), P25090 | FPRL1-expressing cells, fluorescent ligand binding inhibition | inhibition, %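 (tested at 6.7 µM)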 | 24,000 tested, 0.3% active;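 note: 0% = buffer alone and 100% = receptor blocker peptide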
Target sequence (P25090 whole entry, looked up): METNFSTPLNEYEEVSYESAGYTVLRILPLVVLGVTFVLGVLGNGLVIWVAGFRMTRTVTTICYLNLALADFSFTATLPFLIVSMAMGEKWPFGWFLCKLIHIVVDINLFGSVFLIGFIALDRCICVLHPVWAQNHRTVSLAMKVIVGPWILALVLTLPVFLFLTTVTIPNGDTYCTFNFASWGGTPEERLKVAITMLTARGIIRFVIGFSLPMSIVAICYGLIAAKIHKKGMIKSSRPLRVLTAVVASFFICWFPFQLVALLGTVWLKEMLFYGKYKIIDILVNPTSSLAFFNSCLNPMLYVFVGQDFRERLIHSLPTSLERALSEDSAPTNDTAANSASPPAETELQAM
Numbers without * were called inactive; i = inactive; / = not tested or not shown.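 Rule for the calls, unless noted: active = mean above 30%; inconclusive = self-fluorescent; inactive = the rest.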 The list is partial. The share of hits here may be higher or lower than overall.

entry	Structure	VCAM-1 down	VCAM-1 up imaging	VCAM-1 down imaging	FPR binder	FPRL1 binder
1	[N-]=[N+]=CC(=O)CC(c1ccccc1)N1C(=O)c2ccccc2C1=O (configuration not stated)	i	i	i	0	-1
2	COc1ccc(CCC(=O)NCc2cn3ccsc3n2)cc1	/	/	/	11	6
3	O=C(C1CCCC1)N(c1ccccc1)C1C=CS(=O)(=O)C1 (configuration not stated)	/	/	/	-5	0
4	O=C(NCCO)c1cc2ccccc2cc1O	i	i	i	0	0
5	CN1CCC(=C2c3ccccc3C=Cc3ccccc32)CC1	i	i	i	-1	3
6	Cc1ccccc1C(=O)c1cccn1CC(=O)N1CCCCCC1	/	/	/	2	-3
7	O=C(Cn1cccc1C(=O)c1ccccc1)NCCCN1CCOCC1	/	/	/	-2	5
8	CCOC(=O)N1CCC(Nc2ccc3nnc(-c4ccccc4)n3n2)CC1	/	/	/	0	-1
9	Cc1cc(C)c(NC(=O)NC(=O)c2cccc(F)c2)c(C)n1	/	/	/	-6	0
10	Cc1csc2ncc(C(=O)Nc3ccon3)c(=O)n12	/	/	/	4	4
11	CCOC(=O)Nc1ccc2c(CN3C(=O)NC4(CCCC4)C3=O)cc(=O)oc2c1	i	i	i	-4	-5
12	CCC1Oc2ccc(C)cc2N(CC(=O)N(Cc2cccnc2)Cc2ccc(C)o2)C1=O (configuration not stated)	i	i	i	-5	-1
13	CCc1ccccc1NC(=O)CSc1ncn[nH]1	i	i	i	-1	1
14	CCCCOc1ccc(C(=O)Nc2ccc(N3CCN(C(=O)C(C)C)CC3)cc2)cc1	i	i	i	11	-1
15	CCOC(=O)c1cc2c(=O)n3cccc(C)c3nc2n(CCc2ccccc2)c1=N	i	i	i	7	-3
16	CC(=O)NCCn1c(SCC(=O)NCC2CCCO2)nc2ccccc2c1=O (configuration not stated)	i	i	i	-2	5
17	Cc1cccc(OCC(=O)N2CCC(c3ccccc3)C2)c1 (configuration not stated)	i	i	i	-2	4
18	CCOC(=O)C1=C(C)NC(=O)NC1c1ccc(OCC(=O)Nc2ccccc2)c(OC)c1 (configuration not stated)	/	/	/	-4	7
19	O=C(O)c1c[nH]ccc1=O	/	/	/	1	-2
20	COc1ccc2c(c1)c1c(n2C(C)=O)C(OC(C)=O)=NCC1	i	i	i	-7	-6
21	CCOC(=O)CSc1nc2c(sc3ccccc32)c(=O)n1CCCN1CCOCC1	/	/	/	3	-18
22	CCOc1ccc(S(=O)(=O)NCC2CCCO2)c2cccnc12 (configuration not stated)	i	i	i	-2	1
23	CCCCCC(=O)N(CN1C(=O)CCC1=O)c1ccccc1	i	i	i	2	3
24	COc1ccc(N(CC(=O)N2CCCC(C)C2)S(=O)(=O)c2c(C)nn(C)c2C)cc1 (configuration not stated)	/	/	/	4	6
25	O=C(O)CC(NS(=O)(=O)c1cccc2nsnc12)c1ccc(F)cc1 (configuration not stated)	/	/	/	11	3
26	Cc1cc(=O)n(C)c(=O)n1CCCCCN1CCCC1	i	i	i	-2	3
27	CCOc1cc(C#N)c(NC(=O)CSc2nnnn2-c2ccc(OC)cc2)cc1OCC	/	/	/	3	-2
28	CCOC(=O)N1CCC(NC(=O)C2=C(C)C(=O)OC23CCC(C)CC3)CC1 (configuration not stated)	/	/	/	-4	-1
29	Cn1c(CNC(=O)C(C)(C)C)nc2ccccc21	/	/	/	4	0
30	CC(C)CCN1CC(C(=O)NCc2ccc(F)cc2)CC1=O (configuration not stated)	/	/	/	0	-3
31	Cc1cc(=O)[nH]c(S/C=C/c2ccccc2)n1	i	i	i	-4	0
32	CCCNC(=O)C(CC)NS(=O)(=O)c1ccc(OC)cc1 (configuration not stated)	/	/	/	-2	-2
33	O=C(O)C1CC(=O)N(C2CCCCCC2)C1 (configuration not stated)	/	/	/	-4	-6
34	COc1cccc2cc(C(=O)Nc3cccnc3N3CCOCC3)c(=O)oc12	i	i	i	2	1
35	COc1cc(OC)cc(C(=O)NCc2n[nH]c(=S)n2-c2ccccc2)c1	/	/	/	2	0
36	Cc1nc2c(-c3ccccc3)c(C)nn2c(C)c1CCC(=O)O	i	i	i	-2	2
37	Cc1ccccc1-n1c(=O)cc(N2CCC3(CC2)OCCO3)[nH]c1=O	/	/	/	-3	6
38	CCOC(=O)c1ccccc1NC(=O)Cn1c(-c2nonc2N)nc2ccccc21	/	/	/	4	-2
39	CC(C)c1ccc(NC(=O)C(c2ccccc2)N2CCN(C=O)CC2)cc1 (configuration not stated)	/	/	/	-9	-8
40	O=C(Cn1nc(-c2ccc3c(c2)OCCO3)ccc1=O)Nc1ccc(N2CCOCC2)cc1	i	i	i	-1	1
41	CCCCN(C)Cc1c(C)[nH]c2ccc(OCC)cc2c1=O	/	/	/	3	1
42	COc1ccccc1N1CCN(C(CNS(=O)(=O)c2cc(F)ccc2F)c2cccnc2)CC1 (configuration not stated)	i	i	i	7	0
43	O=C(CN1C(=O)c2ccccc2S1(=O)=O)Nc1ccc(S(=O)(=O)N2CCCCCC2)cc1	i	i	i	-6	-4
44	CC1CCN(CCC(=O)Nc2ccc(Br)cc2)CC1	i	i	i	11	-3
45	Cc1oc2c(CN(C)C)c(O)ccc2c(=O)c1-c1ccc2ccccc2n1	/	/	/	-19	2
46	COc1ccccc1N1CCN(Cc2nnnn2CCc2ccccc2)CC1	i	i	i	-7	0
47	CN1c2cccc3cccc(c23)N(C)C1(C)C	/	/	/	-3	0
48	COc1ccccc1-c1nc(SCc2ccccn2)n[nH]1	i	i	i	2	1
49	Nc1nonc1-c1noc(CCCOc2ccc(Cl)cc2Cl)n1	/	/	/	1	-3
50	O=S(=O)(Nc1ccc2c(c1)OCCO2)c1cccc2nsnc12	/	/	/	3	2
51	Fc1cccc2sc(N3CCCCC3)nc12	/	/	/	-4	1
52	O=C(c1cc2ccccc2o1)N1CCN=C1SCc1cccc(F)c1	/	/	/	0	-6
53	CC(=O)c1ccccc1Oc1nc(CN2CCOCC2)nc2scc(-c3cccs3)c12	76	i	78%	0	-5
54	O=C(NC1CCCC1)c1cc(-c2cccs2)on1	i	i	i	8	-1
55	NC(=O)CSc1nc2c(sc3ccccc32)c(=O)n1CCCN1CCOCC1	/	/	/	0	-2
56	COc1ccc(C2C3=C(CCCC3=O)Nc3nc(C(F)(F)F)nn32)cc1OC (configuration not stated)	/	/	/	-4	-4
57	COc1ccc(C2C(C(=O)N3CCCC3)c3cc(OC)c(OC)cc3C(=O)N2C)cc1OC (configuration not stated)	/	/	/	-11	-6
58	CC(O)CN(Cc1cccc(Cl)c1)CC(C)O (configuration not stated)	i	i	i	16	-3
59	O=C(CCn1c(=O)c2ccccc2n(Cc2cccnc2)c1=O)NCc1ccc2c(c1)OCO2	/	/	/	-5	1
60	CCOC(=O)c1sc2nc(C)n(CC(=O)NCC3CCCO3)c(=O)c2c1C (configuration not stated)	/	/	/	-4	-6

Two of these compounds, set out differently:
(47) CN1c2cccc3cccc(c23)N(C)C1(C)C
(55) NC(=O)CSc1nc2c(sc3ccccc32)c(=O)n1CCCN1CCOCC1
entry no. | 47 | 55
VCAM-1 down | / | /
VCAM-1 up imaging | / | /
VCAM-1 down imaging | / | /
FPR binder | -3 | 0
FPRL1 binder | 0 | -2

Continued:
# | molecule | VCAM-1 down | VCAM-1 up imaging | VCAM-1 down imaging | FPR binder | FPRL1 binder
61 | CC(C)Oc1ccc(/C(O)=C2/C(=O)C(=O)N(Cc3cccnc3)C2c2ccco2)cc1 (configuration not stated) | / | / | / | 0 | -4
62 | CCC(=O)N1CCc2cc(S(=O)(=O)CCC(=O)Nc3c(C)n(C)n(-c4ccccc4)c3=O)ccc21 | i | i | i | -4 | 1
63 | Cc1ccc(S(=O)(=O)N2CCOCC2)cc1C(=O)OCC(=O)N1CCc2ccccc2C1 | i | i | i | 4 | -5
64 | COc1cc(C2C(C(=O)c3ccco3)=C(O)C(=O)N2Cc2cccnc2)cc(OC)c1OC (configuration not stated) | / | / | / | -1 | 2
65 | CCOc1ccc(NC(=O)CSc2nnc(Cn3c(=O)sc4ccccc43)n2C)cc1 | / | / | / | 3 | 7
66 | Clc1ccc(OCc2nc(-c3ccccn3)no2)c(Br)c1 | i | i | i | -1 | -2
67 | Cc1nc(C)c(C(=O)Nc2cccc(C)c2C)o1 | / | / | / | 3 | 1
68 | O=C(c1ccc(Cn2c(=O)[nH]c3ccccc3c2=O)cc1)N1CCN(c2ccc(F)cc2)CC1 | / | / | / | 0 | -3
69 | COC(=O)Nc1nc2c(C)cccc2s1 | i | i | i | -1 | 6
70 | Cn1c(-c2ccc(F)cc2)cnc1SCC(=O)Nc1ccccc1N1CCOCC1 | i | i | i | -3 | -4
71 | Cc1nn(-c2ccccc2)c2sc(C(=O)N3CCOCC3)cc12 | i | i | i | 7 | 10
72 | O=C(NCC1CCCO1)c1ccc(CS(=O)(=O)Cc2ccc(F)cc2)o1 (configuration not stated) | / | / | / | 9 | 20
73 | CCn1nnnc1NCc1cccn1C | i | i | i | 4 | 14
74 | C=CCn1c(SCC(=O)Nc2nnc(CC)s2)nnc1-c1ccco1 | / | / | / | 2 | -6
75 | CC(=O)NC(Cc1ccccc1)C(=O)NC1CCN(C(=O)c2cnccn2)CC1 (configuration not stated) | i | i | i | -3 | 1
76 | Fc1cccc(Nc2cc(-n3cccn3)ncn2)c1 | i | i | i | -1 | 0
77 | CC(C)c1ccc(NC(=O)C2CCCN(S(=O)(=O)c3cnc[nH]3)C2)cc1 (configuration not stated) | / | / | / | -4 | -1
78 | COCCCNC(=O)CSc1nc2ccc(N3CCOCC3)cc2c(=O)n1CCc1ccccc1 | i | i | i | 1 | -4
79 | CC(C)CNC(=O)C1C2C=CC(C2)C1C(=O)O (configuration not stated) | i | i | i | -12 | -12
80 | CCNC(=O)CC1C(=O)N(c2ccc(F)cc2)C(=O)N1CCC(C)C (configuration not stated) | i | i | i | -2 | 0
81 | CC(=O)NC1(c2nnnn2CCOC(=O)Nc2ccc(Cl)cc2)CCCCC1 | i | i | i | 8 | 1
82 | COc1cccc(C2C3=C(N=C4SCC(=O)N42)c2ccccc2CC3)c1OC (configuration not stated) | i | i | i | -2 | 1
83 | Cc1cc(NCCCn2ccnc2)n2c(nc3ccccc32)c1C#N | i | i | i | -4 | 4
84 | COc1ccc(N2C(=O)C3CCCN3C2c2ccccc2OC)cc1 (configuration not stated) | / | / | / | -9 | 0
85 | COc1ccc2ccccc2c1CN1CCN(C)CC1 | i | i | i | 4 | -1
86 | O=C(Cn1cnc2sc(-c3ccccc3)cc2c1=O)N1CCOCC1 | i | i | i | 1 | 17
87 | Cc1ccc2[nH]c(=O)c3cc(C(=O)N4CCN(C(=O)c5ccco5)CC4)sc3c2c1 | / | / | / | 5 | -2
88 | COCCNC(=O)C(c1ccc(C)o1)N(C(=O)c1snc(C(N)=O)c1N)c1ccc(C)cc1 (configuration not stated) | i | i | i | 1 | -1
89 | CSCCC(NC(=O)c1occc1C)C(=O)O (configuration not stated) | i | i | i | 1 | 4
90 | Cc1ccc2nc3ccc(N4CCN(C)CC4)nn3c(=O)c2c1 | / | / | / | 2 | 2
91 | O=C1CCCC2=C1C(c1ccc(Br)cc1)c1c([nH]c(=S)[nH]c1=O)N2 (configuration not stated) | i | i | i | 5 | 6
92 | O=C(c1ccc2ccccc2n1)N1CCN(c2ccccc2)CC1 | i | i | i | -7 | -1
93 | C=CCOc1ccc(/C=N/n2cncn2)cc1OC | i | i | i | -7 | -2
94 | S=c1nc2ccccc2c2nc(-c3ccccc3)[nH]n12 | / | / | / | -3 | -6
95 | CSC1=NCCN1C(=O)c1ccc2c(c1)OCO2 | / | / | / | -4 | 2

Given screen by screen: part of the list above.
91	O=C1CCCC2=C1C(c1ccc(Br)cc1)c1c([nH]c(=S)[nH]c1=O)N2 (configuration not stated)
92	O=C(c1ccc2ccccc2n1)N1CCN(c2ccccc2)CC1
93	C=CCOc1ccc(/C=N/n2cncn2)cc1OC
94	S=c1nc2ccccc2c2nc(-c3ccccc3)[nH]n12
95	CSC1=NCCN1C(=O)c1ccc2c(c1)OCO2

assay / entry	91	92	93	94	95
VCAM-1 down	i	i	i	/	/
VCAM-1 up imaging	i	i	i	/	/
VCAM-1 down imaging	i	i	i	/	/
FPR binder	5	-7	-7	-3	-4
FPRL1 binder	6	-1	-2	-6	2
